Screening results (PubChem)
Cruzain inh noDet = qHTS Assay for Promiscuous and Specific Inhibitors of Cruzain (without detergent) | Cruzipain (Trypanosoma cruzi), P25779 | purified cruzain, Z-FR-AMC fluorescence, no detergent | Potency, µM, without a hit: max response, negative = inhibition, actives largely listed as inhibitors | 200,000 tested, 2.3% active; active = well fitted curve in the direction sought with a large enough effect; inconclusive = small, poorly fitted or top-dose-only effect, or another doubt; inactive = no such curve, though single readings can be large; an effect the other way counts as inactive or inconclusive;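 note: plate controls were enzyme without inhibitor for no effect and buffer without enzyme for full effect; nearly all actives have a fitted effect of over 40% in size; top concentration of the series not given in the record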
Target sequence (P25779 123-467 limits assumed): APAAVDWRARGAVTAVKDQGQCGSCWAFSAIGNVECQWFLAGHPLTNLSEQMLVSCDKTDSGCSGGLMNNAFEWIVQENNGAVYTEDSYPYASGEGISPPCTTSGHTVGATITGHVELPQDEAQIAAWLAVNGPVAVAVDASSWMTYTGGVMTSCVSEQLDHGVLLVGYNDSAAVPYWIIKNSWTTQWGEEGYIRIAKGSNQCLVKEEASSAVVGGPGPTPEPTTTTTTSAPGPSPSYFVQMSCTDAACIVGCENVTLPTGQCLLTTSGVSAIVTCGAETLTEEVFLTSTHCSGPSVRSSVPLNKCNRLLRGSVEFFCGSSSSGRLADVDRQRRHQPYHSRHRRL
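Detergent-free condition (0.00005% Triton X-100) in acetate buffer pH 5.5 with DTT. 1.5 nM enzyme and compound were pre-mixed 15 min, then 2 uM Z-FR-AMC substrate added; reaction progress from fluorescence change between first and third reads (60 s).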
Cruzain inh Det = qHTS Assay for Promiscuous and Specific Inhibitors of Cruzain (with detergent) | 200,000 tested, 0.43% active | Potency, µM, for the others: max response, negative = inhibition, usual class: inhibitors | purified cruzain, Z-FR-AMC fluorescence, 0.01% Triton; active = well fitted curve in the direction sought with a large enough effect; inconclusive = small, poorly fitted or top-dose-only effect, or another doubt; inactive = no such curve, though single readings can be large; an effect the other way counts as inactive or inconclusive;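 note: plate controls were neutral wells for no effect and buffer without enzyme for full effect; nearly all actives have a fitted effect of over 40% in size; top concentration of the series not given in the record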
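Z-FR-AMC hydrolysis (2 uM substrate) by cruzain (1.5 nM) monitored kinetically at ex 360/em 450 nm after 15 min room-temperature compound exposure; 0.01% Triton X-100, pH 5.5, 5 mM DTT.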
RE007 growth inh = qHTS Assay for Inhibitors of the HIV-1 protein Vpr; 360,000 tested, 0.21% active; Potency, µM (highest dose often 92.2 µM), for the others: at the top dose activity change, negative = less growth; S. pombe RE007 Vpr strain, BacTiter-Glo ATP luminescence, 24 h; control for the full effect not named in the record; AID 651644, 2012; active = well fitted falling curve with a large enough effect; inconclusive = small, poorly fitted or top-dose-only effect; inactive = no such curve, though single readings can be large or run the other way;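 note: % is set by controls: 0 for no effect and ±100 for the full control effect; nearly all actives have a fitted effect of over 50% in size; the assay follows cell death caused by Vpr and the record does not say whether a fall means rescue or toxicity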
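Fission yeast RE007 carrying one integrated HIV-1 vpr copy, seeded at OD 0.01 in PMG+AL medium with 23 nL pinned compound. Grown 24 h at 30 degrees; viability read by BacTiter-Glo luminescence after 5 min.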
SARS PLpro yeast = qHTS of Yeast-based Assay for SARS-CoV PLP. 330,000 tested, 0.19% active. S. cerevisiae expressing SARS-CoV PLpro, growth rescue; control for the full effect not named in the record. Potency, µM (top dose mostly 32.9 µM), without a hit: at the highest dose activity, positive = growth rescue; note: 0% is about no effect; nearly all actives have a fitted effect of over 55% in size; growth read by luminescence after 48 h
LASV entry inh = qHTS for Inhibitors of binding or entry into cells for Lassa Virus | 300,000 tested, 1.2% active | AID 540256, 2011 | Lassa virus pseudotype entry inhibition, cell reporter; control for the full effect not named in the record | Potency, µM (doses to about 37.9 µM), without a hit: top-dose activity change, negative = inhibition, hits mostly inhibitors; active means well fitted inhibition curve with a large enough effect; inconclusive means small, poorly fitted or top-dose-only effect, or effect the other way; inactive means flat fitted curve, though single readings scatter; tested in HEK293 cells; note: % is set by controls: 0 for no effect and ±100 for the full control effect; nearly all actives have a fitted effect of over 50% in size; luciferase read-out
StopGo reporter = High Throughput Screening for Foot and Mouth Disease Virus Antivirals. human cells with a luciferase reporter of 2A StopGo recoding; control for the full effect not named in the record. 410,000 tested, 1.2% active. Potency, µM (doses to about 57.9 µM), for inactives: at the highest dose signal change, negative = less light; active = well fitted falling curve with a large enough effect; inconclusive = small, poorly fitted or top-dose-only effect; inactive = no such curve, though single readings can be large or run the other way; tested in HEK293T cells; note: % is set by controls: 0 for no effect and ±100 for the full control effect; nearly all actives have a fitted effect of over 45% in size; luciferase light after 4 h
NS1 inh = qHTS Assay for Inhibitors of Influenza NS1 Protein Function; S. cerevisiae slowed by influenza A NS1, growth recovery by OD600; Potency, µM (titrated, usually from 46.1 µM), for inactives: at the top dose activity, positive = more growth; 270,000 tested, 0.4% active; AID 2326, 2010; note: actives are rising curves; nearly all actives have a fitted effect of over 50% in size
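Growth recovery, yeast-based: influenza A NS1 expressed in S. cerevisiae causes slow growth, and suppressors are detected by OD600. The parent strain without NS1 is used as positive control.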
MARV entry inh = qHTS for inhibitors of binding or entry into cells for Marburg Virus | 300,000 tested, 1.8% active | AID 540276, 2011 | Potency, µM (top dose mostly 37.8 µM), inactives show at the top dose activity change, negative = inhibition, most hits filed as inhibitors | Marburg virus pseudotyped entry inhibition, cell reporter; control for the full effect not named in the record; about a third of the inactives were read at about 46 µM; active = well fitted inhibition curve with a large enough effect; inconclusive = small, poorly fitted or top-dose-only effect, or effect the other way; inactive = flat fitted curve, though single readings scatter; tested in HEK293 cells; about a fifth of its hits are not listed in these tables; note: % is set by controls: 0 for no effect and ±100 for the full control effect; luciferase read-out
The depositor's hits bear a star; ? = inconclusive; . = not tested or not shown; & = joins results of further samples; [ ] = remark or other dose. Unless noted, calls come from the whole dose curve; as a rule, active means well fitted rising curve with a large enough effect; inconclusive means small, poorly fitted or top-dose-only effect; inactive means no such curve, though single readings can be large or run the other way. Potency is the fitted concentration of half-maximal effect.

nr	SMILES	StopGo reporter	NS1 inh	LASV entry inh	Cruzain inh Det
1	O=C(CN1CCN(CC(=O)Nc2ccccc2Cc2ccccc2)CC1)Nc1ccccc1Cl	28%	1%	4%[46.1 µM]	.
2	Cn1c(COc2ccccc2)nnc1SCC(=O)Nc1ccc(N2CCOCC2)c(Cl)c1	11%	-9%	-3%	5.1%
3	CCCOC(=O)/C(=C\C=C\c1ccccc1)NC(=O)c1ccccc1	23%	-8%	0%[46.1 µM]	.
4	CC1CCCCN1c1nc(-c2ccncc2)nc2ccccc12 (configuration not stated)	0%	-48%	-10%	-5.9%
5	COCCCN(Cc1ccco1)C(=O)Cn1ncc2c(=O)oc3ccc(C)cc3c21	-11%	6%	.	.
6	COc1cc2c(cc1OC)CN(Cc1cccs1)CC2	-16%	3%	-3%	5.1%
7	O=C(NCc1cccnc1)C(=O)NCC1OCCN1S(=O)(=O)c1ccccc1 (configuration not stated)	-13%	-13%	2%	-0.9%
8	CC1(C)C(=O)Nc2ccccc2N1C(=O)COC(=O)COc1cccc(C(F)(F)F)c1	-16%	.	-8%[46.1 µM]	.
9	C=CCOc1ccc2cccc(/C=N/NC(=O)c3cc4cc([N+](=O)[O-])ccc4s3)c2c1	17%	-1%	7%	0.5%
10	CCOC(=O)N1CCC(NC(=O)CCC(=O)N2CC(C)Oc3ccc(Cl)cc32)CC1 (configuration not stated)	-29%	-5%	-1%	-2.0%
11	O=C(CCC1CCCN(Cc2ccncc2)C1)NCc1ccc(F)c(F)c1 (configuration not stated)	-22%	-4%	-14%	.
12	Cc1ccc(SCc2nc(-c3ccc(C(=O)NCCc4ccc(Cl)cc4)cc3)oc2C)cc1	-19%	.	5%[46.1 µM]	-1.0%

nr	RE007 growth inh	Cruzain inh noDet	SARS PLpro yeast	MARV entry inh
1	3%	.	-1%	?
2	-6%	1%	-1%	8%
3	-5%	.	-2%	?
4	5%	-1%	-13%	?
5	-10%	.	0%	.
6	-11%	-4%	3%	11%
7	-12%	11%	-2%	14%
8	6%	.	0%	12%
9	10%	6.3µM*	-19%	?
10	5%	?	-2%	-1%&-1%
11	-10%	.	1%	1%[46.1 µM]
12	.	5%	.	.

Later entries:
nr	SMILES	StopGo reporter	NS1 inh	LASV entry inh	Cruzain inh Det
13	Cc1cccc(C2c3[nH]c4ccccc4c3CCN2C(=O)c2ocnc2C)n1 (configuration not stated)	-12%	1%	-21%	.
14	CC1=C(C(=O)Nc2ccccc2)C(c2ccc(O)cc2)n2nc(SCc3ccccc3)nc2N1 (configuration not stated)	-7%	.	-9%[46.1 µM]	-0.1%
15	Cc1cccc(C)c1NC(=S)NN1CCN(C)CC1	-9%	-5%	21%	2.6%
16	Cc1cccc(-c2nc(CSc3nncn4c3cc3sccc34)c(C)o2)c1	-8%	.	15%[46.1 µM]	0.2%
17	Cc1cc(C)c(C#N)c(SCC(=O)Nc2c(C)n(C)n(-c3ccccc3)c2=O)n1	-8%	.	10%[46.1 µM]	.
18	Cc1ccc(NC(=O)COc2ccccc2)c(NC(=O)c2ccccc2C)c1	-14%	.	21%	.
19	N#Cc1ccccc1Cn1c(=O)n(CCCC(=O)NCc2ccccc2Cl)c(=O)c2ccccc21	?	.	-1%[46.1 µM]	0.5%
20	Cc1ccc(NC(=O)c2oc3ccccc3c2NC(=O)C2CCCO2)cc1C (configuration not stated)	10%	.	?	.
21	O=C(O)/C=C/c1cn(-c2ccccc2)nc1-c1cccc([N+](=O)[O-])c1	15%	5%	.	.
22	NC(=O)Cc1nc(-c2ccccc2)cs1	-7%	16%	5%	0.5%
23	CSc1nc(=S)n(-c2cc(C)ccc2C)c(C)c1C(C)=O	0%	-1%	-27%	.
24	CCN(CC)S(=O)(=O)c1ccc(Cl)c(NC(=O)c2ccc(C#N)cc2)c1	?	13%	?	0.1%

nr	RE007 growth inh	Cruzain inh noDet	SARS PLpro yeast	MARV entry inh
13	-4%	.	0%	9%[46.1 µM]
14	.	?	.	-5%[46.1 µM]
15	-4%	?	?	0%[46.1 µM]
16	.	-2%	.	.
17	2%	.	-4%	-13%[46.1 µM]
18	26%	.	.	4%
19	.	-1%	.	?
20	-4%	.	-5%	?
21	0%	.	-1%	0%
22	-3%	-7%	7%	?
23	2%	.	2%	?
24	0%	-5%	18%	?

Profiles as entered above. Order of screens: StopGo reporter	NS1 inh	LASV entry inh	Cruzain inh Det	RE007 growth inh	Cruzain inh noDet	SARS PLpro yeast	MARV entry inh
CC1=C(C(=O)Nc2ccccc2)C(c2ccc(O)cc2)n2nc(SCc3ccccc3)nc2N1 (configuration not stated) in the list: -7%	.	-9%[46.1 µM]	-0.1%	.	?	.	-5%[46.1 µM]
NC(=O)Cc1nc(-c2ccccc2)cs1 in the list: -7%	16%	5%	0.5%	-3%	-7%	7%	?

A different layout for part of the listing above:
no. | molecule | StopGo reporter | NS1 inh | LASV entry inh | Cruzain inh Det | RE007 growth inh | Cruzain inh noDet | SARS PLpro yeast | MARV entry inh
13 | Cc1cccc(C2c3[nH]c4ccccc4c3CCN2C(=O)c2ocnc2C)n1 (configuration not stated) | -12% | 1% | -21% | . | -4% | . | 0% | 9%[46.1 µM]
14 | CC1=C(C(=O)Nc2ccccc2)C(c2ccc(O)cc2)n2nc(SCc3ccccc3)nc2N1 (configuration not stated) | -7% | . | -9%[46.1 µM] | -0.1% | . | ? | . | -5%[46.1 µM]
15 | Cc1cccc(C)c1NC(=S)NN1CCN(C)CC1 | -9% | -5% | 21% | 2.6% | -4% | ? | ? | 0%[46.1 µM]

(listing goes on)
nr	SMILES	StopGo reporter	NS1 inh	LASV entry inh	Cruzain inh Det
25	COc1ccc(-c2csc(NC(=O)Cc3ccccc3F)n2)c(OC)c1	33%[activator]	-3%	?	.
26	COc1ccc(-c2cc(C(=O)NCc3ccco3)c3ccccc3n2)cc1OC	11%	.	?	.
27	COc1ccccc1N(C(=O)c1ccco1)C(C(=O)NC1CCCCC1)c1cc(OC)c(OC)c(OC)c1 (configuration not stated)	17%	-3%	1%[46.1 µM]	.
28	CCc1ccccc1NC(=O)N1CCN(c2cc(-c3noc(C)n3)ccc2C)CC1	-23%	.	14%[46.1 µM]	1.1%
29	COc1ccc(C(=O)CSc2nnc(NC(=O)C3CC(=O)N(c4cccc(OC)c4)C3)s2)cc1 (configuration not stated)	-10%	2%	14%	1.0%
30	Cc1csc(NC(=O)c2ccc3nc[nH]c3c2)n1	3%	2%	?	.
31	O=C(Nc1ccc(Cl)c([N+](=O)[O-])c1)c1ccco1	10%	-73%	.	.
32	CC1(C)CC(NC(=O)C2CCC(=O)N(C3CC3)C2)CC(C)(C)C1 (configuration not stated)	-4%	16%	-1%[46.1 µM]	.
33	Nc1ncc(Br)cc1S(=O)(=O)N1CCCCCC1	-22%	2%	13%[46.1 µM]	.
34	COc1cc(OC)cc(-c2nnc(Nc3nc4c(F)cccc4s3)o2)c1	.	-1%	.	0.0%
35	O=C(CC(=O)Nc1ccccc1[N+](=O)[O-])Nc1ccccc1[N+](=O)[O-]	-14%	-1%	-37%[46.1 µM]	.
36	COc1ccc(NC(=O)CCCc2nc(-c3ccco3)no2)c(OC)c1	-12%	.	0%[46.1 µM]	-2.2%

nr	RE007 growth inh	Cruzain inh noDet	SARS PLpro yeast	MARV entry inh
25	-2%	.	-5%	?
26	2%	.	.	?
27	2%	.	1%	-27%[46.1 µM]
28	.	0%	.	.
29	2%	-5%	11%	1%
30	-2%	.	1%	?
31	?	.	-16%	.
32	1%	.	1%	-13%[46.1 µM]
33	-12%	.	-3%	-7%[46.1 µM]
34	-13%	15%	-2%	.
35	-17%	.	0%	?
36	.	-1%	.	10%[46.1 µM]

(continued)
nr	SMILES	StopGo reporter	NS1 inh	LASV entry inh	Cruzain inh Det
37	CC1CN(CCOc2ccccc2-c2ccccc2)CC(C)O1 (configuration not stated)	0%	-24%	?	-1.1%
38	COc1ccc(NC(=S)Nc2ccccc2OC)c(OC)c1	-7%	-4%	5%[46.1 µM]	.
39	Cc1cccc(OCc2nc(-c3ccc(-n4cccc4)cc3)no2)c1	-11%	6%	.	2.1%
40	O=[N+]([O-])c1cc2c(cc1/C=N/Nc1nc(N3CCCC3)nc(N3CCCC3)n1)OCO2	-21%	?	-17%	-12%
41	CC1(C)N=C(c2ccccc2)C(c2ccccc2)=N1	-20%	.	-7%[46.1 µM]	.
42	CCN(CC)S(=O)(=O)c1ccc(N2CCOCC2)c(NC(=O)c2cnccn2)c1	-18%	-7%	18%	-5.2%
43	Cc1coc2cc3oc(=O)c(Cc4ccccc4)c(C)c3cc12	-8%	0%	-16%	-2.1%
44	COc1ccc(-c2cc(-c3ccco3)[nH]c(=O)c2C#N)cc1OC	-8%	1%	.	.
45	Cc1ccc(NC(=O)CCn2cnc3onc(-c4ccc(F)cc4)c3c2=O)c(Br)c1	0%	.	?	0.4%
46	Cc1c(C#N)c2ncn(CCCN(C)C)c(=O)c2n1-c1ccccc1	4%	4%	3%	8.9%
47	CC12CCC(C(=O)NNC(=O)c3ccc(Br)cc3)(OC1=O)C2(C)C (configuration not stated)	?	3%	.	.
48	CCOC(=O)c1[nH]c(C)c(/C(O)=C2\C(=O)C(=O)N(CCN3CCOCC3)C2c2cccs2)c1C (configuration not stated)	8%	-2%	?	-2.0%

nr	RE007 growth inh	Cruzain inh noDet	SARS PLpro yeast	MARV entry inh
37	.	16%	-20%	-10%
38	-8%	.	0%	11%[46.1 µM]
39	-11%	20µM*	-2%	.
40	-3%	14%	12%	6%
41	13%	.	.	-12%[46.1 µM]
42	1%	20%	7%	-3%
43	-30%	?	6%	-30%
44	6%	.	1%	.
45	.	-5%	.	.
46	6%	2%	4%	-15%
47	-3%	.	-6%	.
48	3%[3.69 µM]	-2%	-2%	?
